Screens from PubChem BioAssay.
CtBP-E1A inh: qHTS Assay for Inhibitors of the CtBP/E1A Interaction. CtBP / adenovirus E1A interaction (AlphaScreen). AlphaScreen GST-E1A/His-CtBP binding, 1536-well; hits give low values; control for the full effect not named in the record. activity change, % (test concentration not listed). 0.49% of 340,000 active. AID 651724, 2012; in the data active means activity change below about -65%; inconclusive means about -30% to -65%; inactive means above about -30%; also: % is scaled to controls: 0 for no effect and ±100 for the full control effect; compound concentration not given in the record
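In 5 uL wells, 23 nL compound meets equimolar GST-E1A and His-CtBP (5X stock 125 nM each) for 2 h, 37 °C. Beads (5X, 50 ug/mL) then 1 h, 37 °C, dark.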
TRPV1 potentiator: HTS Assay for Compounds that Act as Potentiators of the Vanilloid Receptor 1. Transient receptor potential cation channel subfamily V member 1 (Homo sapiens), Q8NER1. TRPV1-expressing cells, Fluo-8 calcium influx, capsaicin EC20 potentiation; host cell line not named in the record; control for the full effect not named in the record. potentiation, % at 8.33 µM. 0.02% of 320,000 active. AID 540277, 2011; active means potentiation above 80%; inconclusive means 30% to 80%; inactive means below 30%; also: 0% is about no effect
Target sequence (Q8NER1 whole entry, looked up): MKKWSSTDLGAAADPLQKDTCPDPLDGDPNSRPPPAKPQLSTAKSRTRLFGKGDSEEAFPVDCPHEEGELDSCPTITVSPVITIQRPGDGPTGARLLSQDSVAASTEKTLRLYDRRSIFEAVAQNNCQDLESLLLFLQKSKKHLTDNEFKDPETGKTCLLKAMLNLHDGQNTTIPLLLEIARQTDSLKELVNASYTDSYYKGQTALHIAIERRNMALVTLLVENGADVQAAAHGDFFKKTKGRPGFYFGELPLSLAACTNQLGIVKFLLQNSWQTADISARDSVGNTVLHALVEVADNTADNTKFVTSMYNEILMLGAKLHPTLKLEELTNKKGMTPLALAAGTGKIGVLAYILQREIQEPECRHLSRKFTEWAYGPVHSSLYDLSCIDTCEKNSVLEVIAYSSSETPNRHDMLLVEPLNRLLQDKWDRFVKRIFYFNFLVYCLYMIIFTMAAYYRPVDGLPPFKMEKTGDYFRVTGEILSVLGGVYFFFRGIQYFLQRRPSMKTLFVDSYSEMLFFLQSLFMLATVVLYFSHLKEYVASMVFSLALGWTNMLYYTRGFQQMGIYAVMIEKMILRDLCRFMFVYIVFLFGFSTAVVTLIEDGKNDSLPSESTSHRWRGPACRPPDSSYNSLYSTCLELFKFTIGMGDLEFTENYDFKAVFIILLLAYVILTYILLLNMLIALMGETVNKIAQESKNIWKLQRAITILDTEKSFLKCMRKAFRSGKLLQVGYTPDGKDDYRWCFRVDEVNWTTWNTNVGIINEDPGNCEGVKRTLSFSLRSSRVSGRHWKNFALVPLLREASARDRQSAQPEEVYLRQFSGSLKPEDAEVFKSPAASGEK
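TRPV1-expressing cells were cultured overnight at 35.5C and loaded with Fluo-8 calcium dye for 40 to 90 min at room temperature. After a 10 s baseline, compound was added and calcium influx was read kinetically for 3 min (ex 480/em 520 nm).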
gsp antagonist: qHTS for Antagonists of gsp, the Etiologic Mutation Responsible for Fibrous Dysplasia/McCune-Albright Syndrome: qHTS; gsp-mutant cells, cAMP HTRF, 30 min; control for the full effect not named in the record; AID 624288, 2012; Potency, µM (titrated, usually from 76.9 µM), inactives show at the top dose activity change, negative = inhibition, most hits filed as inhibitors; 0.4% of 340,000 active; active = falling curve of any shape with a large fitted effect; inconclusive = falling curve, mostly with a smaller effect; inactive = flat or rising curve; cell line not stated here;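 also: intracellular cAMP measured with PDE inhibitor Ro 20-1724 present during compound exposure; potency is read from the fitted curve at half-maximal effect; % is scaled to controls: 0 for no effect and ±100 for the full control effect; nearly all actives have a fitted effect of over 65% in size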
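G418-selected cells were plated in DMEM/10% FBS for 16-24 h at 37C, then treated with compounds plus the PDE inhibitor […] (300 uM solution added) for 30 min at 37C. Intracellular cAMP was measured by HTRF after 30 min lysis at room temperature.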
gsp agonist: qHTS for Agonist of gsp, the Etiologic Mutation Responsible for Fibrous Dysplasia/McCune-Albright Syndrome: qHTS; gsp mutant cells, cAMP HTRF, 30 min; control for the full effect not named in the record; 0.13% of 340,000 active; Potency, µM (highest dose often 76.9 µM), for the others: top-dose activation (cAMP increase), actives largely listed as activators; active = well fitted activation curve with a large enough effect; inconclusive = small, poorly fitted or top-dose-only effect, or another doubt; inactive = no such curve, though single readings can be large or run the other way; cell line not stated here;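 also: phosphodiesterase inhibitor Ro 20-1724 added with compounds to block cAMP breakdown; potency is read from the fitted curve at half-maximal effect; nearly all actives have a fitted effect of over 60% in size; about a fifth of the inactives were tested at one dose only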
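Cells stably selected in G418 were plated at 2000/well, grown 16-24 hr, then given compounds in DMSO with the PDE inhibitor […] (300 uM solution added) for 30 min at 37C; cAMP was read by HTRF.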
ClpP mod: qHTS Assay for Activators of ClpP. purified B. subtilis ClpP, FRET peptide cleavage, 20 min. Potency, µM (series often up to 57.5 µM), for inactives: at the top dose activity change, negative = active. 1.9% of 340,000 active. AID 651965, 2013; active = well fitted falling curve with a large enough effect; inconclusive = small, poorly fitted or top-dose-only effect; inactive = no such curve, though single readings can be large or run the other way; also: potency is read from the fitted curve at half-maximal effect; the source files actives as falling curves though it sought activators and does not explain the sign; nearly all actives have a fitted effect of over 65% in size; many hits overshoot -100%
Target sequence (P80244 whole entry, looked up): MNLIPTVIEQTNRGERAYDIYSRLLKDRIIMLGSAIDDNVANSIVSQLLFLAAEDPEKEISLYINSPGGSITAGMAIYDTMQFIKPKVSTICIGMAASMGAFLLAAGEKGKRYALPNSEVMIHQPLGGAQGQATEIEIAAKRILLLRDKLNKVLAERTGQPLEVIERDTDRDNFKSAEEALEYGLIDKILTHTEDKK
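FRET quenching reversal measured ClpP activation: 10 microg/mL B. subtilis ClpP at pH 8 with the FRET-FV decapeptide, read at 430 nm after 320 nm excitation. The 20-min minus 0-min signal was scaled between DMSO/no-enzyme wells and ADEP (5.8 microM final).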
Sfp PPTase inh: qHTS Assay for Inhibitors of Bacillus subtilis Sfp phosphopantetheinyl transferase (PPTase). Potency, µM, inactives show max response, negative = inhibition, usual class: inhibitors. 3.5% of 310,000 active. Biochemical Sfp PPTase activity, qHTS; active = well fitted inhibition curve with a large enough effect; inconclusive = small, poorly fitted or top-dose-only effect, or another doubt; inactive = no such curve, though single readings can be large or run the other way;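 also: the enzyme is Sfp with the accession as filed and its product quenches rhodamine fluorescence; potency is read from the fitted curve at half-maximal effect; 0% = enzyme reaction without inhibitor and -100% = no enzyme wells; top concentration of the series not given in the record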
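Buffer: 50 mM Hepes-Na pH 7.6, 10 mM MgCl2, 0.01% Nonidet P-40, 0.01% BSA. Enzyme 15 nM, pre-exposed to compound 15 min; substrates then added and fluorescence change tracked over 30 min.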
Menin-MLL FL inh: qHTS Assay for Inhibitors Targeting the Menin-MLL Interaction in MLL Related Leukemias: Competition With Fluorescein Labeled MLL-derived Peptide; FP activity change, % at 61.4 µM; AID 1766, 2009; 290,000 tested, under 10 active; Fluorescence polarization, fluorescein-MLL peptide displacement from menin; inconclusive = falling polarisation curve, or a change in total fluorescence; inactive = total fluorescence flat and polarisation flat or rising; no compound was filed as active; the % refers to the polarisation; negative = inhibition;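 also: % of control where 0% means no effect; inhibitors lower the polarisation; unlabelled MLL peptide was the positive control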
Active calls of the source: *; u = inconclusive; x = no result given; & = joins results of further samples; [ ] = remark or other dose. No enrichment for hits, and some 5.3% of all compounds hit somewhere here.

Molecule	CtBP-E1A inh	TRPV1 potentiator	gsp antagonist	gsp agonist	ClpP mod	Sfp PPTase inh	Menin-MLL FL inh
CC1=CCC(C(=O)O)C(C(=O)Nc2ccc(-c3nc4ccc(C)cc4s3)cc2)C1 (configuration not stated)	-22	2	-21%	u	x	-6%	-1.4
O=C(Nc1ccc2nc(-c3cccnc3)[nH]c2c1)C1CCCCC1	-24	8	-6%	-18%	-28%	-1%	0.8
COC(=O)c1ccc(NC(=O)COc2ccc(S(=O)(=O)NC(C)C)cc2)cc1	3	0	0%	2%	-0.6%	9%	1.1
Cc1ccc2[nH]c(=O)c(CN(CCc3ccccc3)Cc3nnnn3CC3CCCO3)cc2c1 (configuration not stated)	-4	-1	-19%	-8%	-3.8%	-14%	0.4
CCOC(=O)N1CCN(c2ccc(O)cc2)CC1	-1	-2	-17%	0%	-3.8%	u	-6.7
O=C(CSc1ccc(-c2ccccc2)nn1)c1cccs1	5	-4	-4%	16%[15.4 µM]	x	-8%	12
COC(=O)c1ccsc1NC(=O)c1cccc(OC)c1	2	-1	-11%	-11%[15.4 µM]	x	1%	-0.5
Cc1ccc(S(=O)(=O)N2CCN(Cc3nc4ccccc4n3C)CC2)cc1	-3	-7	-11%	-54%[inhibitor]	-4.4%	3%	5.9
Brc1ccc2ncnc(NCc3ccco3)c2c1	-2	14	u	u	-5.1%&2.2%	13%	0.8
NC(=O)CC(NC(=O)Cc1ccc(Br)cc1)c1ccc(N2CCC(Br)CC2)c([N+](=O)[O-])c1 (configuration not stated)	-3	28	6%	-5%	-0.8%	-12%	-1.6
Cc1ccc(/C=C2/SC(=S)N(CCC(=O)N3CCOCC3)C2=O)cc1	1	10	2%	12%	x	19%	0.8
CN1CCN(CC/C=C2/c3ccccc3Sc3ccc(S(=O)(=O)N(C)C)cc32)CC1	-18	6	2%	x	-20%	-19%	-0.5&0.4
COc1ccc(C(C)=O)cc1COC(=O)[C@H](Cc1ccccc1)NC(=O)c1ccco1	0	x	-3%	0%	-1.8%	x	x
CSc1ncc(CN2CCC(C(=O)Nc3cccc(-c4cscn4)c3)CC2)cn1	-7	u	-4%	-5%	-2.6%	9%	x
CN(C)S(=O)(=O)c1cccc(-c2nn(-c3ccccc3)cc2/C=C(/C#N)C(=O)NCc2ccco2)c1	-6	7	7%	-38%[15.4 µM]	u	16%	6.7
CC(=O)Nc1ccc(S(=O)(=O)N(C#N)c2nc(N(C)C)nc(N(C)C)n2)cc1	7	-3	-14%	-8%[15.4 µM]	-0.3%	0%	-4.1
Cc1nc2ccccc2n1CC(=O)NC1CCCC1	6	1	5%	1%[15.4 µM]	x	18%	-2.4
COc1ccc(C2NN=C(c3ccc(C)cc3)S2)cc1OC (configuration not stated)	-25	-11	2%	-3%[15.4 µM]	x	u	1.3
COc1ccc2c(c1)c1nc3ccccc3nc1n2CCCN1C(=O)c2ccccc2C1=O	6	0	16%	12%	-1.3%	8%	u
Cc1ccc(C(=O)NCC(=O)N2CCCC(C(F)(F)F)C2)s1 (configuration not stated)	-11	5	-11%	-3%	-5.6%	x	x
CCOC(=O)C1(Cc2ccccc2)CCN(Cc2nccn2CC)CC1	-23	-8	1%	-18%[15.4 µM]	x	1%	0.2
COc1cc(C)cc2c1OC(c1ccccc1)CC2=O (configuration not stated)	5	x	-12%	15%	x	x	x
Cc1ccc(S(=O)(=O)CC(=O)Nc2nnc(C(C)C)s2)cc1	-1	4	-6%	21%[15.4 µM]	x	2%	-1.3
CCc1ccc(/C=C2\SC(N3CCOCC3)=NC2=O)cc1	4	-21	-2%	-10%	x	-3%	-0.2
Cc1ccc(S(=O)(=O)N(CC(=O)NN=C2CCN(C)CC2)c2ccc(F)cc2)cc1	9	2	2%	-15%	x	14%	-5.0
O=C(NNC(=O)C1CC(=O)N(Cc2ccccc2)C1)c1ccc(F)cc1 (configuration not stated)	9	-3	5%	7%	-3.6%	x	x
CCc1n[nH]c2c1C(=O)CC(C)(C)C2	-1	13	7%	22%	25µM*	13%	0.6
Cc1ccc(S(=O)(=O)N2CCN(C(=O)CCCOc3cccc(C)c3)CC2)cc1	3	3	-10%	-61%[inhibitor]	0.3%	x	x
CCn1cc(S(=O)(=O)NC2CCCCC2)cn1	2	18	-1%	8%	0.6%	4%	x
O=C1C=C(O)CC(c2cccs2)C1 (configuration not stated)	1	14	-3%	-56%[inhibitor]	-2.6%	2%	1.4
Cc1cc(C)cc(C(=O)NCCC(=O)NCc2cc(=O)n(C)c(=O)n2C)c1	4	-1	23%	u	-0.4%	17%	-1.6
C=CC[C@H](CC(=O)NCCO)C(=O)N[C@@H](COC(=O)[C@H](CC=C)CC(=O)OC(C)(C)C)Cc1ccccc1	-3	x	6%	x	-0.9%	x	x
O=C(NCCc1c[nH]c2ccccc12)/C(=C/c1ccco1)NC(=O)c1ccco1	5	3	0%	4%[15.4 µM]	x	29%	-1.5
COc1cc([N+](=O)[O-])ccc1NC(=O)CN1CCN(C(=O)c2ccco2)CC1	3	-1	-2%	1%[15.4 µM]	x	5%	-2.9
CCC(C)c1ccc(NC(=O)NCCN2CCCCC2)cc1 (configuration not stated)	-2	-1	13%	-6%	x	13%	3.4
CC(C)C(=O)N(c1ccc2oc(=O)sc2c1)S(=O)(=O)c1ccccc1	4	0	-7%	-4%	0.2%	18µM*	3.3
N#C/C(=C1/CCCN1)c1ccccn1	-1	22	-8%	-25%	0.0%	14%	1.6
CSCCC(NS(=O)(=O)c1ccc(C)cc1)C(=O)N(C)CC(=O)Nc1ccccc1Br (configuration not stated)	2	x	-12%	1%[15.4 µM]	0.8%	x	x
COC(=O)c1ccc(OC(=O)CS(=O)c2ccccc2[N+](=O)[O-])cc1 (configuration not stated)	6	-1	0%	-6%[15.4 µM]	x	-11%	-4.0
COC(=O)c1c(NC(=O)C(=O)NCCCN2CCOCC2)sc2c1CCCC2	0	-1	5%	u	-20%	0%	x
CCN1CCN(c2ccc(S(=O)(=O)N3CCOCC3)cc2NC(=O)c2ccc(C)c(C)c2)CC1	13	-5	3%	22%	-1.4%	x	x
CC(C)Oc1ccc(CCC(=O)N/N=C/c2ccncc2)cc1	2	-29	-3%	-17%[15.4 µM]	x	0%	1.8
COC(=O)[C@]1(C)CCC[C@@]2(C)C3CC[C@@]4(C)C[C@]3(CCC21)CC(=O)N4 (some centres not stated)	-6	-15	4%	x	-2.5%	x	x
CCCCCc1c(O)nc(SCCN2CCOCC2)[nH]c1=O	3	2	8%	-3%[15.4 µM]	x	9%	-3.5
COc1cccc(CN(C)C(=O)CN2C(=O)NC3(CCCc4ccccc43)C2=O)c1 (configuration not stated)	-6	6	6%	-5%	-2.1%	x	x
O=C(C1CCCN(S(=O)(=O)c2cccs2)C1)N1CCN(C2CCCCC2)CC1 (configuration not stated)	4	10	7%	-49%[inhibitor]	2.0%	8%	15
Cc1cc(C(=O)O)ccc1N/C=C1\CCCC(C)C1=O (configuration not stated)	-9	-3	-8%	-25%	-2.7%	16%	3.4
O=C(/C=C/c1cccc([N+](=O)[O-])c1)NCc1cccnc1	-4	16	11%	-33%[inhibitor]	-2.3%	7%	-1.5
COc1ccc(/C=N/NC(=O)c2sc(C)nc2C)cc1	2	-12	3%	15%[15.4 µM]	x	7%	4.7
COc1ccc(NS(=O)(=O)c2cccc(C(=O)NNC(=O)CNC(=O)c3ccco3)c2)cc1	2	13	4%	-28%	2.7%	17%	x
C#CCOCCOCCOCCNc1nc(N2CCN(C(=O)CCCCCCCCCCNC(=O)Cn3cc(C[C@@H](C)O)nn3)CC2)nc(N2CCN(C(=O)CCCCCCCCCCNC(=O)[C@H](CCCCN)n3cc(C[C@@H](C)CC)nn3)CC2)n1	-16	6	-27%	x	2.1%	x	x
NC(=S)N/N=C1\CC(n2nnnc2-c2ccccc2Cl)C2COC1O2 (configuration not stated)	-3	6	9%	-7%[15.4 µM]	x	-6%	-0.7
CCN1C(=O)N(C)C(N(O)C(=O)NC)C1(C)C (configuration not stated)	-3	5	2%	u	-1.3%	5%	5.7
CCOC(=O)CN1NC2(CCCCCCC2)NC1=S	13	1	10%	6%[15.4 µM]	-0.4%	40µM*	-0.6
CC(=O)c1c(C)n(-c2ccccc2Br)c2ccc(O)cc12	3	15	8%	-12%	-0.1%	-9%	10
Cc1ccc(/C=N/NC(=O)c2ccc3ccccc3c2)s1	-5	-21	14%	u	-6.0%	16%	3.9
CCCCCCN(C(=O)CCCCCN1C(=O)NC(c2ccc(C3CCCCC3)cc2)C(C(=O)OCc2ccccc2)=C1C)C(C(=O)NCCCC)c1ccc(OCC(=O)OC)c(C(=O)OC)c1 (configuration not stated)	x	8	x	x	x	5%&10%	1.7&-4.9
O=C(COc1ccccc1)Nc1c(Cl)ccc2nsnc12	1	1	-7%	-1%	1.1%	5%	-1.0
C=C(C)CN(CC)C(=O)CC1C(=O)NCCN1C (configuration not stated)	3	-3	2%	14%[15.4 µM]	x	10%	-1.6
Cc1ccccc1-c1nc2cc(NC(=O)C3CC3)ccc2o1	-2	-2	-9%	-14%	x	4%	-0.2
Clc1ccc(C2=Nc3cc(Cl)ccc3OC2)cc1	x	0	-8%	-21%	19%	20%	-1.4
Cc1ccc(S(=O)(=O)NCCSc2nncn2C)cc1	7	18	3%	3%	x	13%	3.3
